Cruzain noTriton = qHTS Assay for Promiscuous and Specific Inhibitors of Cruzain (without detergent); purified cruzain, Z-FR-AMC fluorescence, no detergent; Potency, µM, inactives show max response, negative = inhibition, most hits filed as inhibitors; actives 2.3% (n = 200,000); active means well fitted curve in the direction sought with a large enough effect; inconclusive means small, poorly fitted or top-dose-only effect, or another doubt; inactive means no such curve, though single readings can be large; an effect the other way counts as inactive or inconclusive;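 further: plate controls were enzyme without inhibitor for no effect and buffer without enzyme for full effect; nearly all actives have a fitted effect of over 40% in size; top concentration of the series not given in the record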
Target sequence (P25779 123-467 limits assumed): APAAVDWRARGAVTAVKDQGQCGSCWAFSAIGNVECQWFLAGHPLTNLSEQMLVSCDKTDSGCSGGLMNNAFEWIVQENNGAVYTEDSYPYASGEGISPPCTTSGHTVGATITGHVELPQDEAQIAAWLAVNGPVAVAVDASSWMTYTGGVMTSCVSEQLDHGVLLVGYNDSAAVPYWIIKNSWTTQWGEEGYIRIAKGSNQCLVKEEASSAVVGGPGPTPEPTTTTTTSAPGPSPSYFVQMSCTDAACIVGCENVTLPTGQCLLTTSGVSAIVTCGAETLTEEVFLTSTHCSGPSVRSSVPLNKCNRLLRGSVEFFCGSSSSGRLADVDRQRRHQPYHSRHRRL
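Purified cruzain at 1.5 nM, pre-incubated 15 min with compound at room temperature in 100 mM sodium acetate pH 5.5, 5 mM DTT, 0.00005% Triton X-100. Reaction started with 2 uM Z-FR-AMC; AMC fluorescence increase over 60 s gives rate.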
LASV entry inh = qHTS for Inhibitors of binding or entry into cells for Lassa Virus; Lassa virus pseudotype entry inhibition, cell reporter; control for the full effect not named in the record; Potency, µM (top dose mostly 37.9 µM), for inactives: at the top dose activity change, negative = inhibition, most hits filed as inhibitors; actives 1.2% (n = 300,000); active means well fitted inhibition curve with a large enough effect; inconclusive means small, poorly fitted or top-dose-only effect, or effect the other way; inactive means flat fitted curve, though single readings scatter; tested in HEK293 cells; further: on the % scale 0 is the no-effect control and ±100 the full control effect; nearly all actives have a fitted effect of over 50% in size; luciferase read-out
SARS PLP yeast = qHTS of Yeast-based Assay for SARS-CoV PLP; S. cerevisiae expressing SARS-CoV PLpro, growth rescue; control for the full effect not named in the record; actives 0.19% (n = 330,000); Potency, µM (top dose mostly 32.9 µM), for inactives: at the top dose activity, positive = growth rescue; further: 0% is about no effect; nearly all actives have a fitted effect of over 55% in size; growth read by luminescence after 48 h
MARV entry inh = qHTS for inhibitors of binding or entry into cells for Marburg Virus; Marburg virus pseudotyped entry inhibition, cell reporter; control for the full effect not named in the record; about a third of the inactives were read at about 46 µM; actives 1.8% (n = 300,000); AID 540276, 2011; Potency, µM (top dose mostly 37.8 µM), inactives show at the highest dose activity change, negative = inhibition, most hits filed as inhibitors; active = well fitted inhibition curve with a large enough effect; inconclusive = small, poorly fitted or top-dose-only effect, or effect the other way; inactive = flat fitted curve, though single readings scatter; tested in HEK293 cells; about a fifth of its hits are not listed in these tables; further: on the % scale 0 is the no-effect control and ±100 the full control effect; luciferase read-out
NS1 inh = qHTS Assay for Inhibitors of Influenza NS1 Protein Function; S. cerevisiae slowed by influenza A NS1, growth recovery by OD600; Potency, µM (top dose mostly 46.1 µM), for the others: top-dose activity, positive = more growth; actives 0.4% (n = 270,000); further: actives are rising curves; nearly all actives have a fitted effect of over 50% in size
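Growth recovery, yeast-based: influenza A NS1 expressed in S. cerevisiae causes slow growth, and suppressors are detected by OD600. The parent strain without NS1 is used as positive control.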
2A StopGo = High Throughput Screening for Foot and Mouth Disease Virus Antivirals; human cells with a luciferase reporter of 2A StopGo recoding; control for the full effect not named in the record; Potency, µM (doses to about 57.9 µM), inactives show at the top dose signal change, negative = less light; actives 1.2% (n = 410,000); AID 1159524, 2015; active = well fitted falling curve with a large enough effect; inconclusive = small, poorly fitted or top-dose-only effect; inactive = no such curve, though single readings can be large or run the other way; tested in HEK293T cells; further: on the % scale 0 is the no-effect control and ±100 the full control effect; nearly all actives have a fitted effect of over 45% in size; luciferase light after 4 h
Cruzain inh Det = qHTS Assay for Promiscuous and Specific Inhibitors of Cruzain (with detergent) | Potency, µM, without a hit: max response, negative = inhibition, most hits filed as inhibitors | actives 0.43% (n = 200,000) | AID 1478, 2009 | Cruzipain (Trypanosoma cruzi), P25779 | purified cruzain, Z-FR-AMC fluorescence, 0.01% Triton; active means well fitted curve in the direction sought with a large enough effect; inconclusive means small, poorly fitted or top-dose-only effect, or another doubt; inactive means no such curve, though single readings can be large; an effect the other way counts as inactive or inconclusive;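 further: plate controls were neutral wells for no effect and buffer without enzyme for full effect; nearly all actives have a fitted effect of over 40% in size; top concentration of the series not given in the record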
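Detergent-containing arm of a paired screen for aggregation-based inhibition: 0.01% Triton X-100 present. Cruzain at 1.5 nM cleaved 2 uM Z-FR-AMC at pH 5.5 with 5 mM DTT; AMC fluorescence gain over 60 s measured activity.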
RE007 growth inh = qHTS Assay for Inhibitors of the HIV-1 protein Vpr | S. pombe RE007 Vpr strain, BacTiter-Glo ATP luminescence, 24 h; control for the full effect not named in the record | Potency, µM (series often up to 92.2 µM), inactives show at the top dose activity change, negative = less growth | actives 0.21% (n = 360,000) | AID 651644, 2012; active = well fitted falling curve with a large enough effect; inconclusive = small, poorly fitted or top-dose-only effect; inactive = no such curve, though single readings can be large or run the other way;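 further: on the % scale 0 is the no-effect control and ±100 the full control effect; nearly all actives have a fitted effect of over 50% in size; the assay follows cell death caused by Vpr and the record does not say whether a fall means rescue or toxicity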
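Fission yeast RE007 carrying one integrated HIV-1 vpr copy, seeded at OD 0.01 in PMG+AL medium with 23 nL pinned compound. Grown 24 h at 30 degrees; viability read by BacTiter-Glo luminescence after 5 min.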
Active calls of the source: *; ? = inconclusive; . = no result given; & = joins results of further samples; [ ] = dose if it differs, or a comment. Unless noted, the call rests on the fitted dose curve; in most records, active means well fitted rising curve with a large enough effect; inconclusive means small, poorly fitted or top-dose-only effect; inactive means no such curve, though single readings can be large or run the other way. Potency means the concentration at half of the fitted maximal effect.

SMILES	Cruzain noTriton	LASV entry inh	SARS PLP yeast	MARV entry inh	NS1 inh	2A StopGo	Cruzain inh Det	RE007 growth inh
CCCN(C(=O)c1cc(CC)c(C)s1)c1c(N)n(Cc2ccccc2)c(=O)[nH]c1=O	.	-7%	?	1%	.	-27%	.	-28%
O=C(Nc1ccc(S(=O)(=O)N2CCOCC2)cc1)C1COc2ccccc2O1 (stereo not drawn)	-3%	2%	1%	3%	3%	-4%	5.5%	-2%
O=C(Cn1cnc([N+](=O)[O-])n1)c1ccc(O)c(O)c1	.	3%[46.1 µM]	0%	3%[46.1 µM]	-1%	-12%	.	-11%
CCc1ccc(OCC(=O)NNC(=O)CSc2nnc(-c3ccc(C)cc3)n2C)cc1	?	0%	-3%	?	3%	48%[activator]	4.1%	-6%
C/C(=N\NC(=O)c1ccc(Cl)c(Cl)c1)c1ccccn1	.	5.6µM*	2%	?	-13%	15%	.	?
N#Cc1c(NC(=O)c2ccc(-c3ccccc3[N+](=O)[O-])o2)sc2c1CCCC2	?	11%	-1%	22%[46.1 µM]	?	13%	1.6%	10%
CCOc1ccc2nc(N3CCCC(C(=O)Nc4cccc(Cl)c4C)C3)sc2c1 (stereo not drawn)	3%	.	.	?	.	27%	-5.7%	.
COc1ccc(CN2CCN(Cc3ccccc3F)CC2)cc1OC	.	.	11%	.	22%	-20%	.	7%
COc1ccc(Nc2nnc(C)c3ccccc23)cc1C(N)=O	2%	?	-5%	6%&6%[46.1 µM]	7%	17%	-3.6%	-7%
COc1cc(/C=C2\C(=O)NN(c3ccccc3)C2=O)cc([N+](=O)[O-])c1O	.	9%	-1%	6%[46.1 µM]	.	6%	.	7%
O=C(O)C(O)c1ccccc1 (stereo not drawn)	.	.	2%	.	13%	-10%&-7%	.	4%&4%[18.4 µM]
Cc1nn(-c2cc(Cl)ccc2Cl)c(C)c1C(=O)O	.	7%	1%	0%[46.1 µM]	.	-3%	.	-1%
CCN(c1ccccc1)S(=O)(=O)c1ccc(OC)c(N=N/C(C(=O)Nc2ccccc2)=C(/C)O)c1	.	11%	3%	?	.	-9%	.	9%
COc1ccc(Cl)cc1NC(=O)CN(C)C(=O)c1n[nH]c2ccccc12	.	2%	-4%	?	.	?	.	14%
Brc1cccc(-c2nc3cccnc3nc2-c2cccc(Br)c2)c1	.	.	3%	.	9%	0%	.	18%

Single records, from the list above:
`CCCN(C(=O)c1cc(CC)c(C)s1)c1c(N)n(Cc2ccccc2)c(=O)[nH]c1=O` reads Cruzain noTriton: .; LASV entry inh: -7%; SARS PLP yeast: ?; MARV entry inh: 1%; NS1 inh: .; 2A StopGo: -27%; Cruzain inh Det: .; RE007 growth inh: -28%
`C/C(=N\NC(=O)c1ccc(Cl)c(Cl)c1)c1ccccn1` reads Cruzain noTriton: .; LASV entry inh: 5.6µM*; SARS PLP yeast: 2%; MARV entry inh: ?; NS1 inh: -13%; 2A StopGo: 15%; Cruzain inh Det: .; RE007 growth inh: ?

New compounds follow:
SMILES	Cruzain noTriton	LASV entry inh	SARS PLP yeast	MARV entry inh	NS1 inh	2A StopGo	Cruzain inh Det	RE007 growth inh
Cc1ccc(N2CCN(c3ccc(NCc4nc5ccccc5n4C)cc3)CC2)cc1	?	-2%	5%	20%	-1%	13%	5.2%	-2%
CCCCc1nnc(NC(=O)c2oc3ccc(OC)cc3c2C)s1	.	-3%	-7%	3%	.	19%	.	-19%
CCOc1ccc(CNC(=O)C2CCN(S(=O)(=O)N3CCC(C)CC3)CC2)cc1OC	-5%	12%[46.1 µM]	.	.	.	0%&-26%	2.3%	5%
CN(CC(=O)Nc1cccc(F)c1)C(=O)CCSc1ccc(F)cc1	.	?	-1%	?	.	0%	.	42%
O=C(c1cncc(Br)c1)N1CCN(S(=O)(=O)c2ccccc2C(F)(F)F)CC1	.	3%	5%	-9%[46.1 µM]	8%	-11%	.	-20%
CCc1ccc2nc3n[nH]c(N)c3cc2c1	-13%	?	1%	5%	2%	39%[activator]	0.2%	19%
CC1(C)CC(=O)c2c(oc3ccc(NS(=O)(=O)c4cccc5cccnc45)cc23)C1	.	?	-1%	?	7%	11µM*	.	-1%
COC(=O)c1c(NC(=O)CCCOc2ccc(C)cc2)sc2c1C(C(=O)OC)CC2 (stereo not drawn)	?	-7%[46.1 µM]	.	.	.	?	-19%	.
N#Cc1c(N)oc(-c2ccco2)c1-c1ccco1	-2%	-8%	-12%	?	-13%	0%	-5.5%	1%
COc1ccccc1OCc1ccc(C(=O)NCc2cccnc2)o1	-5%	-11%	3%	-12%[46.1 µM]	-6%	4%	-1.2%	9%
O=C(CCC(=O)N1CCN(c2ccccn2)CC1)Nc1nnc(C2CCCCC2)s1	?	1%	13%	9%	-18%	.	-5.7%	2%
CC(C)CCNC(=O)Cc1ccc(NC(=O)N2CCCCc3ccccc32)cc1	0%	-19%[46.1 µM]	.	.	.	-14%	-2.8%	.
COc1ccc(OC)c(C(=O)CSc2ncc3c(n2)-c2ccccc2N(Cc2ccccc2C)S3(=O)=O)c1	?	10%[46.1 µM]	.	.	.	-1%	2.3%	.
COc1ccc2nc(NC(=O)C3CCN(C(=O)c4ccc(F)cc4)CC3)sc2c1	.	?	?	13%	8%	-22%	.	57%
O=C(CN1C=NS(=O)(=O)c2ccccc21)Nc1ccc(Br)cc1	11%	11%[46.1 µM]	.	.	.	37%[activator]	1.4%	.
CC(C)CSc1nc(N2CCOCC2)c2c(c1C#N)CC(C)(C)SC2	-25%	-21%	-5%	-23%&-23%	0%	?	-4.5%	-4%
COc1cc(NC(=S)N(C)C)c(OC)cc1Cl	.	18%[46.1 µM]	0%	-3%[46.1 µM]	2%	-2%	.	6%
CCc1ccc(N2CC(C(=O)NC3CCCCC3C)CC2=O)cc1 (stereo not drawn)	.	-11%	0%	17%[46.1 µM]	14%	-7%	.	2%
O=C1c2ccccc2-c2onc3c(N4CCN(C5CCCCC5)CC4)cc(NCCO)c1c23	-14%	3%[46.1 µM]	.	1%[46.1 µM]	.	-15%	-4.0%	.
CCOc1ccc(N2C(=O)C(Cl)=C(Nc3ccccc3O)C2=O)cc1	-8%	8%	-20%	0%	-120%	.	-10%	?
N#CCCn1cc(C(=O)Nc2ccc([N+](=O)[O-])cc2)c(-c2ccc3c(c2)OCCO3)n1	-5%	?	-12%	11%	?	26%	-13%	15%
CCn1c(SCC(=O)NC(C)C)nnc1-c1cccs1	4%	2%	-7%	5%	-2%	-4%	3.2%	10%
NC(=O)C1(S(=O)(=O)c2ccccc2)CCCCC1	2%	0%	-4%	6%	4%	-3%	-0.6%	3%
Cc1cc(OCc2cc(C(=O)N(C)CCOc3ccccc3)no2)cc(C)c1Cl	.	.	-3%	.	-22%	-13%	.	1%
Cc1cccc(C(C)C)c1NC(=O)COC(=O)CNS(=O)(=O)c1ccccc1	.	-6%	4%	4%	.	-19%	.	5%
Cc1ccc(-n2cc(CN3CCN(Cc4nccn4C)CC3)c(-c3cccc(C)c3)n2)cc1	.	?	0%	?	-3%	5%	.	?
Cc1cc(C)cc(NC(=S)NCc2ccc(F)cc2)c1	-14%	12%	-15%	?	5%	53%[activator]	-6.3%	-11%
CCN(CC(=O)NC(=O)NCc1ccccc1)Cc1nc2ccccc2c(=O)[nH]1	.	-17%	1%	7%[46.1 µM]	.	-15%	.	21%
CCN(C(=O)Cn1cnc2ccccc2c1=O)C1CCS(=O)(=O)C1 (stereo not drawn)	.	0%	-3%	8%[46.1 µM]	.	-18%	.	-2%
COc1ccccc1/C=C/C=N/n1c(-c2ccc(F)cc2)n[nH]c1=S	.	?	1%	?	7%	19%	.	7%
Cc1ccc(SCC(=O)OCC(=O)NCCNC(=O)COC(=O)CSc2ccc(C)c(C)c2)cc1C	.	22%	.	?	.	-6%	.	-6%
Cc1nc2ncnn2c(C)c1CCC(=O)NCc1ccc2c(c1)OCO2	-3%	3%	0%	23%	?	13%	1.0%	1%
COc1ccccc1NC(=O)NCc1ccc2c(c1)OCO2	4%	.	-1%	-1%	7%	.	1.7%	.
CC(NC(=O)CSc1ccccc1)c1ccccc1 (stereo not drawn)	.	.	-2%	.	-19%	-1%	.	4%
COc1ccc(C(C)=O)cc1CSc1nnnn1-c1ccc(O)cc1	.	.	0%	.	3%	-19%	.	5%
Cc1ccnc(NS(=O)(=O)c2ccc(NC(=O)c3ccc(N4C(=O)CCC4=O)cc3)cc2)n1	0%	-2%	6%	0%	14%	-7%	0.8%	-4%
Cc1ccc(S(=O)(=O)N(C)C)cc1NC(=O)c1cc(C(C)(C)C)nn1Cc1ccccc1	.	.	-1%	.	4%	?	.	20%
CCN1CCN(C(=O)C(C)Sc2nc3nc(C)cc(C)n3n2)CC1 (stereo not drawn)	.	13%[46.1 µM]	0%	11%[46.1 µM]	.	26%	.	6%
O=C(/C=C\Nc1ccc(Cl)cn1)c1ccc(Br)cc1	.	?	0%	?	0%	67%[activator]	.	1%
COCCOC(=O)c1c(C)n(S(=O)(=O)c2ccc(C)cc2)c2ccc(NS(=O)(=O)c3ccc(C)cc3)cc12	10µM*	?	.	?	.	-1%	-2.6%	.
CCOc1ccc(-n2c(C)nc3cc(C(=O)NCC4CCCO4)ccc32)cc1 (stereo not drawn)	.	5µM*	-3%	?	9%	2%	.	-1%
COc1cccc(C(C(=O)NC(C)(C)C)N(CCc2ccccc2)C(=O)CCC(=O)Nc2cc(C)on2)c1OC (stereo not drawn)	.	-13%	0%	?	2%	-17%	.	2%
CC1CCC(NC(=O)c2cc3c(=O)n(C)c4ccccc4c3n2C)CC1 (stereo not drawn)	?	.	-3%	.	-10%	8%	-4.8%	23%
CCOC(=O)C1=C(COC(=O)COc2cc(C)ccc2C)NC(=O)NC1C (stereo not drawn)	.	-6%	3%	1%	.	-12%	.	-18%

From PubChem BioAssay
